Vaccinia stage = blocks a specific stage of Vaccinia orthopoxvirus infection, primary screen, cell-based, single point | Vaccinia-infected cells, mCherry/Venus stage reporter fluorescence; stronger effect = lower value; some inactives read as strong as hits | activity change (mCherry), % (concentration not given with the values) | hit rate 0.01% among 89,000;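 active = mCherry past -33% and 40 or more points under the early reporter, replicates agreeing; inconclusive = past -33% without that gap or agreement; tested in A549 cells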;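 also: scaled between vehicle wells and reference inhibitor wells; 23 nL library stock went into each well; one replicate is shown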
Vaccinia stage Venus = second read-out of Vaccinia stage, no call of its own (marks repeat the call); activity change (Venus), %; measured here: Venus reporter, other viral stage;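 negative = less Venus signal; first of two replicates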
Active calls of the source: *; ? = inconclusive; nt = no result given; & = joins results of further samples.

Each structure is followed by: Vaccinia stage, Vaccinia stage Venus
Cc1ccc(S(=O)(=O)N(C)C[C@H]2Oc3c(NC(=O)Nc4ccc5c(c4)OCO5)cccc3C(=O)N([C@@H](C)CO)C[C@H]2C)cc1
→ -28, -26
O=C(C[C@H]1C[C@H]2c3cc(NC(=O)c4ccc5c(c4)OCO5)ccc3O[C@H]2[C@@H](CO)O1)NCCc1ccccc1
→ -3, 3
O=C(C[C@H]1CC[C@H]2[C@@H](COC[C@@H](O)CN2S(=O)(=O)c2ccccc2)O1)NCCN1CCCCC1
→ 6, 21
COc1ccc(NC(=O)N(C)C[C@H]2OCCCC[C@@H](C)Oc3ccc(N(C)C)cc3C(=O)N([C@@H](C)CO)C[C@@H]2C)cc1
→ -7, 2
COc1ccc(S(=O)(=O)Nc2ccc3c(c2)C(=O)N([C@H](C)CO)C[C@H](C)[C@@H](CN(C)C(=O)NC2CCCCC2)O3)cc1
→ 23, 20
O=C(Cc1ccccc1)N[C@H]1CC[C@H](CC(=O)N2CCOCC2)O[C@@H]1CO
→ 4, -4
C[C@H](CO)N1C[C@H](C)[C@H](CN(C)S(=O)(=O)c2ccc(F)cc2)Oc2c(NC(=O)c3cnccn3)cccc2C1=O
→ 4, 8
CO[C@H]1CN(C)C(=O)c2cc(NC(=O)c3cnccn3)ccc2OC[C@@H](C)N(CCc2ccccc2)C[C@@H]1C
→ 5, 6
Cc1ccccc1S(=O)(=O)NCC[C@H]1CC[C@@H](NC(=O)Nc2cccc(Cl)c2)[C@H](CO)O1
→ -17, -11
Cc1cc(C(=O)Nc2cccc3c2O[C@@H](CN(C)Cc2ccccc2)[C@H](C)CN([C@@H](C)CO)C3=O)n(C)n1
→ -10, -5
C[C@@H]1CN([C@H](C)CO)S(=O)(=O)c2ccc(C#CC3CCCC3)cc2O[C@@H]1CN(C)C(=O)Cc1ccncc1
→ ?, nt
COc1ccc(CN(C)C[C@@H]2Oc3c(NC(=O)Nc4ccc(C(F)(F)F)cc4)cccc3C(=O)N([C@H](C)CO)C[C@H]2C)cc1
→ -28, -25
C[C@H]1CN([C@@H](C)CO)S(=O)(=O)c2ccc(-c3ccncc3)cc2O[C@H]1CN(C)S(C)(=O)=O
→ 10, 14
O=C(C[C@H]1C[C@H]2c3cc(NC(=O)Nc4ccccc4F)ccc3O[C@H]2[C@@H](CO)O1)NCC(F)(F)F
→ 8, -1
CO[C@@H]1CN(C)C(=O)c2cc(NC(=O)c3ccc(F)cc3)ccc2OC[C@@H](C)N(C)C[C@H]1C
→ -7, -2
CO[C@@H](CN(C)S(=O)(=O)c1ccc(Cl)cc1)[C@H](C)CN(C(=O)Nc1ccccc1F)[C@H](C)CO
→ 9, 10
CN1CCN(C(=O)C[C@H]2CC[C@@H]3[C@H](COc4ccc(NC(=O)C5CCCC5)cc4C(=O)N3C)O2)CC1
→ 12, 7
C[C@@H]1CN([C@@H](C)CO)S(=O)(=O)c2ccc(-c3ccc(F)cc3)cc2O[C@H]1CN(C)S(C)(=O)=O
→ ?, nt
O=C(O)C[C@@H]1CC[C@@H]2[C@H](COC[C@H](O)CN2S(=O)(=O)c2ccc(F)cc2)O1
→ 16, 2
C[C@H]1CN([C@@H](C)CO)C(=O)c2cc(NC(=O)C3CC3)ccc2O[C@@H]1CN(C)Cc1ccc2c(c1)OCO2
→ 7, -2

(cont.)
Each structure is followed by: Vaccinia stage, Vaccinia stage Venus
O=C(NC1CCCCC1)N[C@H]1CC[C@@H](CCNS(=O)(=O)c2ccccc2)O[C@H]1CO
→ -2, 4
C[C@H]1CCCCO[C@@H](CN(C)S(=O)(=O)c2ccc(F)cc2)[C@@H](C)CN([C@@H](C)CO)C(=O)c2cc(NC(=O)NC3CCCCC3)ccc2O1
→ ?, nt
COC(=O)N(C)C[C@@H]1OCc2ccccc2-c2ccccc2C(=O)N([C@@H](C)CO)C[C@@H]1C
→ 32, 39
O=C(Cc1ccncc1)NCC[C@H]1CC[C@H](NS(=O)(=O)c2ccccc2Cl)[C@H](CO)O1
→ -1, 16
O=C(C1CC1)N1CC[C@H]2[C@H](CO)Nc3ccc(-c4ccc(F)cc4)cc3[C@H]21
→ 2, -12
C[C@@H]1CN([C@@H](C)CO)C(=O)Cc2cc(NC(=O)Nc3ccc(F)cc3)ccc2O[C@H]1CN(C)Cc1ccncc1
→ -9, -4
C[C@@H]1CN([C@H](C)CO)C(=O)c2cccc(NC(=O)c3ccncc3)c2O[C@@H]1CN(C)S(C)(=O)=O
→ 8, -4
CC(=O)N1[C@@H]2Cn3c(ccc(-c4cccc(C(=O)N(C)C)c4)c3=O)[C@H]1[C@@H](C(=O)O)[C@@H]2CO
→ 10, 7
COc1ccc(S(=O)(=O)Nc2ccc3c(c2)CC(=O)N([C@@H](C)CO)C[C@H](C)[C@@H](CN(C)Cc2ccc4c(c2)OCO4)O3)cc1
→ -26, -20
C[C@H](CO)N1C[C@H](C)[C@@H](CN(C)C(=O)Cc2ccccc2)Oc2cc(C#CC3(O)CCCC3)ccc2S1(=O)=O
→ 2, 0
COc1ccc(CN(C)C[C@@H]2Oc3ccc(NC(=O)Cc4cn(C)c5ccccc45)cc3CC(=O)N([C@@H](C)CO)C[C@H]2C)cc1
→ -11, -13
O=C(c1cccnc1)N1CC2(C1)[C@H](c1ccccc1)[C@H](CO)N2Cc1ccncc1
→ 11, 6
C[C@@H]1CN([C@@H](C)CO)C(=O)c2cc(NC(=O)C3CCCCC3)ccc2O[C@H]1CN(C)S(C)(=O)=O
→ -1, 7
COCc1cn(CC[C@@H]2CC[C@@H](NC(=O)Nc3ccc(Cl)cc3)[C@H](CO)O2)nn1
→ -2, -1
C[C@@H]1CN([C@H](C)CO)C(=O)c2ccccc2-c2ccccc2CO[C@@H]1CN(C)C(=O)[C@@H]1CCCN1C
→ -1, 0
CN1C(=O)c2cc(NC(=O)C3CCCC3)ccc2OC[C@H]2O[C@H](CC(=O)Nc3ccccc3)CC[C@@H]21
→ -2, 7
CC(C)COC(=O)N(C)C[C@@H]1OCc2ccccc2-c2ccccc2C(=O)N([C@@H](C)CO)C[C@@H]1C
→ 15, 3
CC(C)NC(=O)N(C)C[C@H]1Oc2c(NC(=O)Nc3cccc4ccccc34)cccc2C(=O)N([C@H](C)CO)C[C@@H]1C
→ -5, -4
Cc1noc(C)c1NC(=O)N(C)C[C@H]1Oc2c(NC(=O)c3cnccn3)cccc2C(=O)N([C@H](C)CO)C[C@@H]1C
→ 15, 13
C[C@H](CO)N1C[C@H](C)[C@@H](CN(C)Cc2ccncc2)Oc2ccc(NC(=O)CCCCCC(=O)Nc3ccccc3N)cc2CC1=O
→ 19, 8

Structural class: the compounds so far containing two or more sulfur atoms
Each structure is followed by: Vaccinia stage, Vaccinia stage Venus
C[C@H]1CN([C@@H](C)CO)S(=O)(=O)c2ccc(-c3ccncc3)cc2O[C@H]1CN(C)S(C)(=O)=O
→ 10, 14
C[C@@H]1CN([C@@H](C)CO)S(=O)(=O)c2ccc(-c3ccc(F)cc3)cc2O[C@H]1CN(C)S(C)(=O)=O
→ ?, nt

Returning to the listing, repeating the 5 entries before the break.
Each structure is followed by: Vaccinia stage, Vaccinia stage Venus
CN1C(=O)c2cc(NC(=O)C3CCCC3)ccc2OC[C@H]2O[C@H](CC(=O)Nc3ccccc3)CC[C@@H]21
→ -2, 7
CC(C)COC(=O)N(C)C[C@@H]1OCc2ccccc2-c2ccccc2C(=O)N([C@@H](C)CO)C[C@@H]1C
→ 15, 3
CC(C)NC(=O)N(C)C[C@H]1Oc2c(NC(=O)Nc3cccc4ccccc34)cccc2C(=O)N([C@H](C)CO)C[C@@H]1C
→ -5, -4
Cc1noc(C)c1NC(=O)N(C)C[C@H]1Oc2c(NC(=O)c3cnccn3)cccc2C(=O)N([C@H](C)CO)C[C@@H]1C
→ 15, 13
C[C@H](CO)N1C[C@H](C)[C@@H](CN(C)Cc2ccncc2)Oc2ccc(NC(=O)CCCCCC(=O)Nc3ccccc3N)cc2CC1=O
→ 19, 8
C[C@H](CO)N1C[C@H](C)[C@H](CN(C)S(=O)(=O)c2cccs2)Oc2ncc(C#Cc3ccccc3)cc2C1=O
→ -22&-1, -25&7
C[C@H]1CN([C@@H](C)CO)C(=O)Cc2cc(NC(=O)C3CCCCC3)ccc2O[C@@H]1CN(C)CC1CCCCC1
→ ?, nt
CN1CCN(C(=O)C2=C[C@@H](c3coc4ccccc4c3=O)C[C@@H](OCc3ccc(CO)cc3)O2)CC1
→ 2, 3
C[C@@H]1CCCCO[C@H](CN(C)C(=O)CCC(F)(F)F)[C@H](C)CN([C@H](C)CO)C(=O)c2cc(NC(=O)c3ccccc3)ccc2O1
→ -9, -3
C[C@H](CO)N1C[C@H](C)[C@H](CN(C)C(=O)Nc2ccc(F)cc2)OCCCC[C@H](C)Oc2ccc(NC(=O)c3ccccc3)cc2C1=O
→ -22, -11
C[C@H]1CN([C@@H](C)CO)C(=O)c2cc(C3=CCCCC3)cnc2O[C@@H]1CN(C)C(=O)c1ccc(F)cc1
→ -11, -11
Cc1noc(C)c1S(=O)(=O)Nc1ccc2c(c1)C(=O)N([C@H](C)CO)C[C@@H](C)[C@@H](CN(C)C(=O)NC(C)C)OCCCC[C@H](C)O2
→ 15, 13
CC(C)C#Cc1cnc2c(c1)C(=O)N([C@@H](C)CO)C[C@@H](C)[C@H](CN(C)C(=O)Cc1ccccn1)O2
→ -5, -8
C[C@@H]1CN([C@@H](C)CO)C(=O)c2cccc(NS(=O)(=O)c3ccccc3)c2O[C@H]1CN(C)Cc1ccncc1
→ 8, 8
COc1ccccc1S(=O)(=O)N(C)C[C@H]1Oc2ncc(-c3ccc(C)cc3)cc2C(=O)N([C@H](C)CO)C[C@@H]1C
→ ?, nt
CS(=O)(=O)N1CC2(C1)[C@H](c1ccccc1)[C@H](CO)N2CC1CCCC1
→ 2, 2
CC(C)NC(=O)Nc1ccc2c(c1)C(=O)N(C)[C@H]1CC[C@@H](CC(=O)Nc3ccccc3)O[C@@H]1CO2
→ 6, 4
C[C@H](CO)N1C[C@H](C)[C@@H](CN(C)CC2CC2)Oc2c(NC(=O)NC3CCCCC3)cccc2C1=O
→ -21, -8
CC(C)NC(=O)N(C)C[C@@H]1OCCCC[C@@H](C)Oc2ccc(NS(C)(=O)=O)cc2C(=O)N([C@H](C)CO)C[C@@H]1C
→ 22, 10
O=C(c1ccncc1)N1CC[C@@H]2[C@H](CO)Nc3ccc(-c4ccccc4)cc3[C@@H]21
→ -2, 8
CC(C)(C)[C@H]1C=C(C(=O)Nc2ccccc2)O[C@@H](OCCCCO)C1
→ 0, 6
CO[C@@H]1CN(C)C(=O)c2cc(NC(=O)C3CCCC3)ccc2OC[C@@H](C)N(Cc2nccs2)C[C@H]1C
→ -7, -7
Cc1noc(C)c1NC(=O)Nc1ccc2c(c1)C(=O)N([C@H](C)CO)C[C@H](C)[C@H](CN(C)Cc1ccccc1)OCCCC[C@H](C)O2
→ 22, 6
CN(C)CCCNC(=O)C[C@@H]1C=C[C@H](NC(=O)Cc2cccnc2)[C@@H](CO)O1
→ 11, 13
COCC(=O)N[C@H]1C=C[C@H](CC(=O)NCc2ccccc2OC)O[C@H]1CO
→ 14, 10

(listing goes on)
Each structure is followed by: Vaccinia stage, Vaccinia stage Venus
CN(C)C(=O)c1cccc(-c2ccc3c(c2)[C@H]2[C@H](CCN2C(=O)c2cnccn2)[C@H](CO)N3)c1
→ 9, -6
C[C@@H]1CN([C@H](C)CO)C(=O)c2cccc(NS(=O)(=O)c3cn(C)cn3)c2O[C@H]1CN(C)Cc1ccccc1
→ -5, -2
C[C@@H]1CN([C@@H](C)CO)S(=O)(=O)c2ccc(-c3ccncc3)cc2O[C@@H]1CN(C)C(=O)Nc1ccc(C(F)(F)F)cc1
→ ?, nt
CC(=O)N[C@@H]1CC[C@@H](CCNC(=O)C2CC2)O[C@@H]1CO
→ -3, -7
C[C@@H]1CN([C@H](C)CO)C(=O)Cc2cc(NC(=O)Nc3ccc4c(c3)OCO4)ccc2O[C@@H]1CN(C)C(=O)Nc1ccc2c(c1)OCO2
→ 19, 12
CN(C)C(=O)c1cccc(-c2ccc([C@H]3[C@@H](C#N)N(C(=O)C4CCCCC4)[C@H]3CO)cc2)c1
→ -29, -23
C[C@@H]1CN([C@H](C)CO)C(=O)Cc2cc(NC(=O)C3CC3)ccc2O[C@@H]1CN(C)S(=O)(=O)c1ccc(F)cc1
→ 8, 11
COc1ccc2c3c(n(C)c2c1)[C@H](CO)N(Cc1ccncc1)CC31CN(C(=O)C2CCCCC2)C1
→ -11, -9
O=C(C[C@@H]1C[C@@H]2c3cc(NC(=O)NC4CCCC4)ccc3O[C@@H]2[C@H](CO)O1)NC1CCCCC1
→ 6, -2
COc1ccc(S(=O)(=O)Nc2ccc3c(c2)C(=O)N([C@@H](C)CO)C[C@H](C)[C@@H](CN(C)C(=O)Nc2ccc(F)cc2)OCCCC[C@@H](C)O3)cc1
→ ?, nt
CCCC#Cc1ccc([C@H]2[C@H](CO)N3C(=O)CN(C(=O)Nc4cccc(F)c4)C[C@@H]23)cc1
→ ?, nt
C[C@H](CO)N1C[C@H](C)[C@@H](CN(C)C(=O)Nc2ccccc2)Oc2ccc(NC(=O)Nc3ccc(F)cc3)cc2C1=O
→ -1, -6
COc1cc2c(cc1OC)CN(C(=O)[C@H]1[C@@H]3C(=O)O[C@@H](c4ccccc4)[C@@H](c4ccccc4)N3[C@@H](c3ccccc3OCCO)[C@]13C(=O)Nc1ccccc13)CC2
→ -33, -6
C[C@H](CO)N1C[C@H](C)[C@H](CN(C)Cc2ccc3c(c2)OCO3)Oc2ccc(NC(=O)Nc3ccc(F)cc3)cc2CC1=O
→ -14, -14
C[C@@H]1CN([C@@H](C)CO)S(=O)(=O)c2ccc(-c3cccc(C(=O)N(C)C)c3)cc2O[C@@H]1CN(C)Cc1ccc2c(c1)OCO2
→ -34, -25
C[C@H]1CN([C@@H](C)CO)C(=O)CCCn2nncc2CO[C@H]1CN(C)C(=O)Nc1ccc2c(c1)OCCO2
→ 32, 19
COc1ccc(S(=O)(=O)Nc2ccc3c(c2)CC(=O)N([C@H](C)CO)C[C@H](C)[C@@H](CN(C)C(=O)Nc2ccccc2)O3)cc1
→ 9, 7
C[C@@H]1CN([C@H](C)CO)C(=O)Cc2cc(NS(=O)(=O)c3cccs3)ccc2O[C@H]1CN(C)S(=O)(=O)c1cn(C)cn1
→ 10, 7

A portion of the library; rates above refer to the full screens.
